Vaccinia inh: Vaccinia orthopox stage-specific inhibition; Vaccinia-infected cells, mCherry/Venus stage reporter fluorescence; stronger effect = lower value; some inactives read as strong as hits; activity change (mCherry), % (no concentration beside the values); 89,000 compounds, 0.01% hits;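 active means mCherry past -33% and 40 or more points under the early reporter, replicates agreeing; inconclusive means past -33% without that gap or agreement; tested in A549 cells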;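 further: scaled between vehicle wells and reference inhibitor wells; 23 nL library stock went into each well; one replicate is shown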
Vaccinia inh Venus: further read-out of Vaccinia inh, marked with its call; activity change (Venus), %; measured here: Venus reporter, other viral stage;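 negative = less Venus signal; first of two replicates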
* marks the source's active call; other numbers are inactive results; ? = inconclusive; . = no result given; & = joins results of further samples. Some of the compounds tested; rates above refer to the full screens.

Every second line gives: Vaccinia inh, Vaccinia inh Venus
- Cc1ccc(OC(=O)N(C)C[C@H]2OCc3ccccc3-c3c(n(C)c4ccccc34)C(=O)N([C@@H](C)CO)C[C@H]2C)cc1
  ?, .
- C[C@H](CO)N1C[C@H](C)[C@@H](CN(C)CC2CCCCC2)Oc2ccc(N(C)C)cc2C1=O
  -8.2, 10.1
- C[C@H]1CN([C@@H](C)CO)C(=O)c2cccc(NC(=O)NC3CCCCC3)c2O[C@@H]1CN(C)S(=O)(=O)c1cn(C)cn1
  6.5, 6.2
- CC(=O)N(C)C[C@H]1Oc2ncc(C#C[C@@H](C)O)cc2C(=O)N([C@H](C)CO)C[C@H]1C
  27.1, 8.0
- C[C@H]1CN([C@@H](C)CO)C(=O)Cc2cc(NC(=O)CCN3CCOCC3)ccc2O[C@H]1CN(C)C(=O)Nc1ccc(C(F)(F)F)cc1
  0.4, -1.9
- C[C@H](CO)N1C[C@H](C)[C@@H](CN(C)CC2CC2)Oc2c(NC(=O)C3CCCCC3)cccc2C1=O
  -23.1, -16.3
- COCC#Cc1ccc2c(c1)O[C@@H](CN(C)Cc1cccnc1)[C@@H](C)CN([C@@H](C)CO)S2(=O)=O
  8.1, -5.1
- N#Cc1cccc(-c2ccc([C@H]3[C@H](CO)N4CCCCN(C(=O)Cc5ccncc5)C[C@@H]34)cc2)c1
  14.4, 0.9
- CN(C)CC(=O)Nc1ccc2c(c1)[C@H]1C[C@@H](CC(=O)NCC3CC3)O[C@@H](CO)[C@H]1O2
  6.8, 18.3
- CO[C@H]1CN(C)C(=O)c2cc(NC(C)=O)ccc2OC[C@@H](C)N(Cc2nccs2)C[C@@H]1C
  6.1, 8.7
- Cc1nn(C)cc1NC(=O)C[C@@H]1CC[C@H]2[C@H](COc3ccc(NC(=O)Nc4cccc(Cl)c4)cc3C(=O)N2C)O1
  20.7, 9.0
- CO[C@H]1CN(C)C(=O)c2ccc(NS(=O)(=O)c3ccc(C)cc3)cc2OC[C@H](C)N(Cc2nccs2)C[C@H]1C
  -0.1, -1.5
- C[C@H]1CN([C@@H](C)CO)C(=O)CCCn2cc(nn2)CO[C@H]1CN(C)C(=O)Nc1ccnc(N2CCOCC2)c1
  8.6, 8.6
- COCC(=O)Nc1ccc2c(c1)OC[C@H](C)N(C(=O)c1ccccc1F)C[C@H](C)[C@H](OC)CN(C)C2=O
  -10.6, -19.7
- COc1cccc(-c2ccc3c(c2)[C@H]2[C@H](CCN2Cc2ccccc2OC)[C@H](CO)N3)c1
  ?, .
- CCC(=O)N[C@@H]1C=C[C@@H](CC(=O)NCCN2CCCCC2)O[C@H]1CO
  15.0, 9.6
- CCCNC(=O)Nc1ccc2c(c1)OC[C@H](C)N(C(C)=O)C[C@H](C)[C@@H](OC)CN(C)C2=O
  7.7, 7.4
- Cc1noc(C)c1S(=O)(=O)N(C)C[C@@H]1Oc2c(NC(=O)c3ccc(-c4nccs4)cc3)cccc2C(=O)N([C@@H](C)CO)C[C@H]1C
  15.4, 13.8
- CCCNC(=O)N1CC(=O)N2[C@H](CO)[C@H](c3ccc(C#CCC4CCCC4)cc3)[C@H]2C1
  ?, .
- C[C@@H]1CN([C@H](C)CO)C(=O)c2c(c3ccccc3n2C)-c2ccccc2CO[C@H]1CN(C)Cc1ccc(O)cc1
  ?, .
- O=C(N[C@H]1C[C@@H]2O[C@H](CO)CC[C@@H]2O[C@@H]1CCc1ccc(C#CC2CC2)cc1)c1cccc(F)c1
  -14.8, -14.3
- COc1ccc(S(=O)(=O)N(C)C[C@@H]2OCCCC[C@H](C)Oc3ccc(NS(=O)(=O)c4cccs4)cc3C(=O)N([C@@H](C)CO)C[C@H]2C)cc1
  -12.5, -3.3
- CO[C@@H]1CN(C)C(=O)c2cc(NC(=O)C3CC3)ccc2OC[C@@H](C)N(S(=O)(=O)c2ccc(Cl)cc2)C[C@H]1C
  -17.9, -6.4
- C[C@H]1CN([C@@H](C)CO)C(=O)c2c(c3ccccc3n2C)-c2ccccc2CO[C@H]1CN(C)C(=O)c1ccc(F)cc1
  -23.7, -22.4
- CCC(=O)N(C)C[C@@H]1Oc2cc(C#CC3(O)CCCC3)ccc2S(=O)(=O)N([C@@H](C)CO)C[C@H]1C
  5.9, 6.7
- CCC(=O)N1CC2(C1)CN(Cc1ccccc1Cl)[C@H](CO)c1c2c2ccc(OC)cc2n1C
  1.8, 2.8
- C[C@H](CO)N1C[C@H](C)[C@H](CN(C)C(=O)Nc2ccc(C(C)(C)C)cc2)OCc2cnnn2CCCC1=O
  17.1, 13.8
- C[C@H]1CN([C@@H](C)CO)S(=O)(=O)c2ccc(C3=CCCC3)cc2O[C@H]1CN(C)C(=O)c1ccc(F)cc1
  3.7, 1.3
- C[C@@H]1CN([C@H](C)CO)C(=O)c2cccc(NC(=O)c3ccc(-c4nccs4)cc3)c2O[C@H]1CN(C)Cc1ccc(Cl)c(Cl)c1
  ?, .
- CN(C)c1ccc2c(c1)[C@@H]1C[C@@H](CC(=O)NCCc3ccccc3)O[C@H](CO)[C@@H]1O2
  -5.1, 8.2
- CCCNC(=O)N1C[C@@H](O)COC[C@@H]2O[C@H](CC(=O)N3CCN(C)CC3)CC[C@H]21
  2.5, 1.9
- Cc1ccc(S(=O)(=O)Nc2ccc3c(c2)C(=O)N([C@H](C)CO)C[C@@H](C)[C@@H](CN(C)C(=O)Nc2ccccc2)O3)cc1
  -0.1, 1.3
- CCCNC(=O)N(C)C[C@H]1Oc2cc(C#CC3CC3)ccc2S(=O)(=O)N([C@@H](C)CO)C[C@H]1C
  -0.8, 4.2
- CCCNC(=O)N1C[C@H](C)[C@@H](OC)CN(C)C(=O)c2ccc(NS(C)(=O)=O)cc2OC[C@@H]1C
  3.4, 9.9
- CCCN1C[C@@H](C)[C@@H](OC)CN(C)C(=O)c2cc(NC(=O)c3ccc(F)cc3)ccc2OC[C@H]1C
  4.6, 13.4
- COc1ccc(NC(=O)N(C)C[C@@H]2Oc3ccc(NC(=O)CCC(F)(F)F)cc3C(=O)N([C@@H](C)CO)C[C@@H]2C)cc1
  14.5, 3.7
- C[C@@H]1CN([C@@H](C)CO)C(=O)Cc2cc(NC(=O)CCC(F)(F)F)ccc2O[C@@H]1CN(C)S(=O)(=O)c1cccs1
  10.4, 10.1
- O=C(C[C@H]1C[C@H]2c3cc(NC(=O)C4CCOCC4)ccc3O[C@H]2[C@@H](CO)O1)NCCN1CCCCC1
  22.1, 19.1
- O=S(=O)(c1cccc(F)c1)N1[C@@H]2CNC[C@H]1C2c1ccc(-c2ccc(F)cc2)cc1 (stereo partly specified)
  5.4&7.0, 3.5&7.0
- O=C(c1cccnc1)N1CC[C@@H]2[C@@H](CO)Nc3ccc(C#Cc4cccnc4)cc3[C@@H]21
  -4.6, 1.1
- C[C@H](NC(=O)C[C@H]1C[C@@H]2c3cc(NS(=O)(=O)c4ccc(F)cc4)ccc3O[C@@H]2[C@H](CO)O1)c1ccccc1
  -4.0, -5.7
- CCN1[C@@H]2Cn3c(ccc(-c4ccc(OC)cc4)c3=O)[C@H]1[C@@H](C(=O)NCC1CC1)[C@@H]2CO
  3.6, -0.3
- CCC(=O)N1[C@@H]2c3ccc(-c4ccncc4)c(=O)n3C[C@@H]2[C@@H](CO)[C@@H]1C(=O)Nc1ccccc1
  -28.5, 4.6
- C[C@@H]1CCCCO[C@H](CN(C)S(C)(=O)=O)[C@@H](C)CN([C@H](C)CO)C(=O)c2cc(NC(=O)Nc3ccc(C(F)(F)F)cc3)ccc2O1
  44.1, 18.0
- Cc1noc(C)c1NC(=O)Nc1ccc2c(c1)C(=O)N([C@@H](C)CO)C[C@@H](C)[C@H](CN(C)S(=O)(=O)c1c(C)noc1C)OCCCC[C@H](C)O2
  15.3, 2.3

Remaining list, next part.
compound	Vaccinia inh	Vaccinia inh Venus
CO[C@@H]1CN(C)C(=O)c2cc(NC(=O)C3CCC3)ccc2OC[C@H](C)N(Cc2ccncc2)C[C@@H]1C	11.9	7.4
C[C@@H]1CN([C@H](C)CO)S(=O)(=O)c2ccc(-c3ccccc3)cc2O[C@H]1CN(C)Cc1cncnc1	-3.0	-15.3
C[C@@H]1CN([C@@H](C)CO)C(=O)c2cc(NC(=O)c3ccncc3)ccc2O[C@@H](C)CCCCO[C@H]1CN(C)S(=O)(=O)c1ccccc1	4.2	-5.0
C[C@@H]1CN([C@H](C)CO)C(=O)Cc2cc(NC(=O)CCN3CCOCC3)ccc2O[C@@H]1CN(C)S(=O)(=O)c1cccs1	1.4	-5.4
C[C@@H]1CN([C@H](C)CO)C(=O)Cc2cc(NC(=O)CCN3CCOCC3)ccc2O[C@H]1CN(C)S(=O)(=O)c1cccs1	2.7	-2.9
C[C@@H]1CN([C@@H](C)CO)C(=O)c2cc(NC(=O)Cc3ccccc3)ccc2O[C@@H]1CN(C)CC1CC1	3.8	5.5
C[C@@H]1CCCCO[C@H](CN(C)C(=O)Nc2ccc(C(F)(F)F)cc2)[C@H](C)CN([C@H](C)CO)C(=O)c2cc(NS(=O)(=O)c3ccccc3)ccc2O1	-28.5	-20.8
CCC(=O)N1CCC2(CC1)CN(S(=O)(=O)c1ccccc1)[C@@H](CO)c1[nH]c3cc(OC)ccc3c12	4.3	-5.5
C[C@H]1CN([C@@H](C)CO)S(=O)(=O)c2ccc(C#CC3CCCCC3)cc2O[C@@H]1CN(C)C(=O)Cc1ccncc1	?	.
COc1ccc(S(=O)(=O)N(C)C[C@@H]2OCCCC[C@@H](C)Oc3ccc(NS(=O)(=O)c4cccs4)cc3C(=O)N([C@@H](C)CO)C[C@@H]2C)cc1	-8.1	3.2
COCC(=O)Nc1ccc2c(c1)[C@H]1C[C@H](CC(=O)N3CCOCC3)O[C@@H](CO)[C@H]1O2	6.7	5.9
Cc1ccc(-c2cnc3c(c2)C(=O)N([C@@H](C)CO)C[C@H](C)[C@H](CN(C)C(=O)c2ccc(F)cc2)O3)cc1	5.7	12.3
CCCNC(=O)Nc1ccc2c(c1)OC[C@H](C)N(Cc1ccccc1)C[C@@H](C)[C@H](OC)CN(C)C2=O	?	.
C[C@@H]1CN([C@H](C)CO)C(=O)Cc2cc(N(C)C)ccc2O[C@H]1CN(C)C(=O)Nc1ccc(F)cc1	4.5	5.4
CN1c2ccc(-c3ccccc3)cc2[C@@H]2[C@@H](CCN2C(=O)Nc2ccccc2F)[C@@H]1CO	?	.
CCCN1C[C@H](C)[C@@H](OC)CN(C)C(=O)c2ccc(NS(=O)(=O)c3ccccc3)cc2OC[C@H]1C	1.5	8.5
CC(C)NC(=O)N(C)C[C@@H]1OCCCC[C@H](C)Oc2ccc(NC(=O)Nc3ccc(C(F)(F)F)cc3)cc2C(=O)N([C@@H](C)CO)C[C@@H]1C	-26.8	-11.5
COc1cccc(NC(=O)N2CC[C@@H]3[C@@H](CO)N(C)c4ccc(-c5ccccc5)cc4[C@@H]32)c1	?	.
O=C([C@H]1[C@H](CO)[C@H]2Cn3c(ccc(C4=CCCCC4)c3=O)[C@H]2N1Cc1nccs1)N1CCOCC1	22.1	20.5
CO[C@@H]1CN(C)C(=O)c2ccc(NC(C)=O)cc2OC[C@H](C)N(Cc2nccs2)C[C@@H]1C	-2.7	3.7

Single records (already shown). Values in the order: Vaccinia inh | Vaccinia inh Venus
Entry for `O=C([C@H]1[C@H](CO)[C@H]2Cn3c(ccc(C4=CCCCC4)c3=O)[C@H]2N1Cc1nccs1)N1CCOCC1` → 22.1 | 20.5
Entry for `CCC(=O)N1[C@@H]2c3ccc(-c4ccncc4)c(=O)n3C[C@@H]2[C@@H](CO)[C@@H]1C(=O)Nc1ccccc1` → -28.5 | 4.6
Entry for `CO[C@@H]1CN(C)C(=O)c2cc(NC(=O)C3CC3)ccc2OC[C@@H](C)N(S(=O)(=O)c2ccc(Cl)cc2)C[C@H]1C` → -17.9 | -6.4

Continued:
compound	Vaccinia inh	Vaccinia inh Venus
COc1ccc2c3c(n(C)c2c1)[C@@H](CO)N(C(=O)CN1CCOCC1)CC31CN(C(=O)CC2CC2)C1	10.0	-1.4
C[C@H](CO)N1C[C@H](C)[C@H](CN(C)C(=O)Nc2ccccc2)Oc2ncc(C3=CCCCC3)cc2C1=O	-18.7	-12.8
CN(C)C(=O)c1ccc(-c2ccc([C@H]3[C@@H](CO)N4CCCCN(C(=O)C5CCC5)C[C@H]34)cc2)cc1	23.8	13.6
COCCNC(=O)C[C@@H]1CC[C@H]2[C@H](COc3ccc(NC(=O)c4cc(C)on4)cc3C(=O)N2C)O1	15.7	9.8
COc1ccc(C#Cc2ccc3c(c2)[C@H]2[C@H](CCN2C(=O)C2CC2)[C@@H](CO)N3)cc1	11.5	7.2
C[C@@H]1CN([C@H](C)CO)S(=O)(=O)c2ccc(C#CC3CC3)cc2O[C@H]1CN(C)C(=O)c1cnccn1	12.8	1.5
COc1cccc(S(=O)(=O)N[C@H]2CC[C@H](CCn3cc(-c4ccccn4)nn3)O[C@@H]2CO)c1	-8.4	0.0
CO[C@H]1CN(C)C(=O)c2cc(NC(C)=O)ccc2OC[C@@H](C)N(C(=O)CN2CCOCC2)C[C@@H]1C	8.8	4.2
C[C@@H]1CN([C@@H](C)CO)C(=O)c2cc(NC(=O)Nc3ccc(F)cc3)ccc2O[C@@H](C)CCCCO[C@@H]1CN(C)C(=O)Cc1ccccc1	24.5	12.8
COc1ccc(NC(=O)N(C)C[C@H]2Oc3ccc(NC(=O)C4CCCCC4)cc3C(=O)N([C@H](C)CO)C[C@@H]2C)cc1	5.7	0.9
C[C@@H]1CN([C@H](C)CO)C(=O)c2cc(-c3ccc(F)cc3)cnc2O[C@H]1CN(C)C(=O)c1ccccn1	19.7	8.3
[N-]=[N+]=NCc1ccccc1C[C@]1(C(=O)NCC(O)CO)COC(c2ccc(OCCCO)cc2)=N1 (stereo partly specified)	17.1	13.5
O=C(Cc1ccccc1)N1C[C@H]2[C@@H](c3ccccc31)[C@H](CO)N2C(=O)C1CCOCC1	7.1	6.3

Compound activity deposited in PubChem by Broad Institute.
